H5N1 CPE: antiviral screen in MDCK cells, H5N1 avian flu. cytopathic effect, luminescence, 72 h; hits give high values; no value below 0 was filed and about half of the inactive calls have no number; reference of the scale not given here. inhibition, % at 50 µM. AID 740. actives 0.07% (n = 96,000); in the data active = inhibition above about 25%
* = called active by the depositor; i = inactive. An excerpt; count on the stated rates, not on these rows.

structure | H5N1 CPE
Cn1c(N2CCN(C(=O)NCc3ccccc3)CC2)nc2ccccc21 | i
COc1ccc(OC)c(S(=O)(=O)n2nnc3cc(Cl)ccc32)c1 | i
COc1ccc(-n2c(SCC(=O)Nc3ccc(C(=O)O)cc3)nnc2-c2cccs2)cc1 | 2.1
CCC(C)(C(=O)NC1CCCC1)N(C(=O)c1ccccn1)c1ccc(C)cc1 (stereo not drawn) | 0.1
CC1CN(C)C(C)(C)CC1(O)c1ccccc1 (stereo not drawn) | i
COc1ccccc1N=Cc1c(O)n(C)c(=O)n(C)c1=O | i
CCc1nc(NCCCn2ccnc2)c2oc3ccccc3c2n1 | 0.7
CCOC(=O)/C(C#N)=C1\Nc2ccccc2N=C1N(CC(C)C)CC(C)C | 0.5
CCOc1ccccc1Nc1nc(N)nc(CN(C)C2CCCCC2)n1 | i
CSc1c(CC(=O)Nc2ccccc2Cl)n(Cc2ccccc2)c2ccccc12 | 1.6
COC(=O)c1c(NS(=O)(=O)c2ccc3ccccc3c2)sc2c1CCCC2 | 0.4
Cc1ccc(-c2csc(NC(=O)c3cccs3)n2)cc1 | i
COc1ccc(CCNCc2ccncc2)cc1OC | i
CCCNC(=O)CS(=O)Cc1nc(-c2ccc(OC)cc2)oc1C (stereo not drawn) | 0.1
N/C(CC(=O)Nc1cccc(C(F)(F)F)c1)=N/O | i
CCOc1ccc(-c2c(C)n([O-])c3c([n+]2=O)CCCC3)cc1 | 0.8
COc1ccc(C)cc1S(=O)(=O)N(CC(=O)NCc1ccc(Cl)cc1)Cc1ccccc1 | i
Cn1c(=O)n(Cc2ccccc2F)c2ccccc21 | i
Cn1nnnc1SCC(=O)NC(=O)NCc1ccccc1 | 3.4
O=C(NCc1ccco1)c1noc2c1CCCCC2 | 4.5
CCOC(=O)N1CCC(NC(=O)c2csc3c2CCCC3)CC1 | 0.9
Cc1cc(C)cc(Nc2cc(=O)n(C3CCCCC3)c(=O)[nH]2)c1 | i
CC(C)c1nc(-c2ccccc2)c(-c2ccccc2)[nH]1 | i
O=C(CCn1c(=O)c2ccccc2n(CC(=O)NCCC2=CCCCC2)c1=O)NCc1ccco1 | 3.9
CCOCCOC(=O)C1=C(C)Nc2ccc(C)cc2S1 | i

Sorted by molecular weight (lowest first): 3 of the compounds above.
structure | H5N1 CPE
N/C(CC(=O)Nc1cccc(C(F)(F)F)c1)=N/O | i
CC(C)c1nc(-c2ccccc2)c(-c2ccccc2)[nH]1 | i
CCOC(=O)N1CCC(NC(=O)c2csc3c2CCCC3)CC1 | 0.9

Next part
structure | H5N1 CPE
CCC(c1nnnn1C1CCCCC1)N(Cc1ccco1)Cc1cc2ccc(OC)cc2[nH]c1=O (stereo not drawn) | i
CC1=C(C(=O)Nc2cccc(C)n2)C(c2ccc3c(c2)OCO3)C2=C(CC(c3ccco3)CC2=O)N1 (stereo not drawn) | 0.6
O=C(c1ccco1)N(Cc1cc2ccccc2[nH]c1=O)C1CCCCC1 | 0.2
COC(=O)C1=C(N)Oc2cc(C)n(C)c(=O)c2C1c1ccc(Cl)cc1 (stereo not drawn) | 0.4
Cc1cc(C)n2nc(SC(C)C(=O)N3CCC4(CC3)OCCO4)nc2n1 (stereo not drawn) | 0.5
O=C(COc1cc(=O)n2c(n1)SCCC2)c1ccccc1 | 2.2
CCCCn1c(=O)c2ccccc2c2ccccc2c1=O | 0.5
Cc1c2c([n+]3n1CCC3)CC(C)(C)CC2=O | i
CCOC(=O)COc1ccc(S(=O)(=O)N2CCc3ccccc3C2)cc1 | 0.6
CC/C(=N\O)c1ccc(OC)c(OC)c1 | i
Cn1c(=O)c(C(=O)CN2CCCc3ccccc32)c(N)n(Cc2ccccc2)c1=O | i
CCC(c1nnnn1Cc1ccco1)N(Cc1cc2cc(OC)ccc2[nH]c1=O)C1CCCCC1 (stereo not drawn) | 3.1
Cc1noc(C)c1S(=O)(=O)Nc1ccc(C(=O)NCCc2ccccc2)cc1 | 1.8
Cc1ccccc1Cn1nc(C)c(NC(=O)c2noc3c2CCc2ccccc2-3)c1C | i
CSc1ccc2nnc(-c3cccc(F)c3)n2n1 | 0.6
Clc1ccc(-c2ccnc(Oc3cc(Cl)ccc3Cl)n2)cc1 | 0.8
CCCCOC(=O)CSc1nc(N)c(C#N)c(-c2ccc(OC)cc2)c1C#N | i
Cc1ccccc1Cn1cc(NC(=O)c2noc3c2CC(C(C)(C)C)CC3)cn1 (stereo not drawn) | 0.1
CC1CCN(c2nc3ccc(C(=O)N4CCN(Cc5ccc6c(c5)OCO6)CC4)cc3s2)CC1 | 2.1
COc1ccccc1-c1n[nH]c2c1[C@H](C)CC[C@H]2C(C)C | 2.0
N#Cc1nc(COc2ccc(Cl)cc2)oc1N1CCN(Cc2ccccc2)CC1 | 0.3
O=C(c1ccc2c(c1)OCO2)[C@@H]1[C@@H]2C(=O)N(C3CCCCC3)C(=O)[C@@H]2C2c3ccccc3C=CN21 (stereo partly drawn) | i
O=C(/C=C/c1ccc([N+](=O)[O-])cc1)NCC1CCCO1 (stereo not drawn) | 0.1
CC(C)(CNS(=O)(=O)c1ccc(F)cc1)CNS(=O)(=O)c1ccc(F)cc1 | 1.5
COc1ccc(OC)c(Nc2nc(-c3sc(NC(=O)CC(C)C)nc3C)cs2)c1 | i
O=C1NN(c2ccc(Cl)c(Cl)c2)C(=O)/C1=C/c1cccc(OC(=O)c2cccs2)c1 | i
CC(C)(C)S(=O)(=O)c1ccc2nc3c(n2c1)CCCC3 | 0.7
CC(C)n1c(=O)c2c(O)cc(=O)oc2c2ccccc21 | 0.2
CCOC(=O)COc1ccc(S(=O)(=O)Nc2ccc3c(c2)OCCO3)cc1 | 0.4
COc1ccc(-c2nnc3c4ccccc4c(C)nn23)cc1S(=O)(=O)N1CCN(CCO)CC1 | 0.9
COC(=O)c1ccccc1NC(=O)c1cc(-c2cccs2)on1 | i
O=C(CSc1ncn[nH]1)NCCC(c1ccccc1)c1ccccc1 | 2.9
O=C(CSc1ccc2nnc(-c3cccc(F)c3)n2n1)NCc1ccco1 | 7.1
COc1cc(/C=C/C(=O)c2c(O)cc(C)oc2=O)cc(OC)c1O | 4.1
CCOC(=O)C1=C(C)NC(=O)NC1/C=C/c1ccccc1 (stereo not drawn) | i
CN1CCN(Cc2cc(C(C)(C)C)c(O)c(C(C)(C)C)c2)CC1 | i
N#Cc1c2n(c3c(=O)n(Cc4ccccc4Cl)cnc13)CCCCC2 | 0.1
NS(=O)(=O)c1ccc(NC(=O)c2ccccc2Cl)cc1 | i
CC1CCCC(C)N1C(=O)CSc1nnc(NC(=O)Cc2cccs2)s1 (stereo not drawn) | 0.7
CSc1cc(-c2ccccc2)n(Cc2ccc(Cl)cc2Cl)c(=O)c1C#N | i
O=C(CCN1C(=O)c2ccccc2C1=O)Nn1cnnc1 | i
COc1cc(OC)c(C(=O)NC2CC(C)(C)NC(C)(C)C2)cc1OC | 9.1
CCOC(=O)/C(C#N)=C/c1ccc(-c2ccsc2C(=O)OC)o1 | i
Cc1oc2c(CN3CCCC3)c(O)ccc2c(=O)c1-c1ccc(Br)cc1 | i
CCOC(=O)c1cc2c(=O)n3ccccc3nc2n(Cc2ccccc2)c1=N | 2.7
Cn1c(=O)cc(SCC(=O)NCC2CCCO2)c2ccccc21 (stereo not drawn) | 0.1
CCn1c2ccccc2c2cc(NC(=O)Cc3ccc(S(=O)(=O)N4CCOCC4)s3)ccc21 | 0.1
O=C(CSc1nnc(-c2csc3c2CCCC3)o1)Nc1ccccc1 | i
O=C(O)c1cc2n(n1)C(C(F)(F)F)CC(c1ccccc1)N2 (stereo not drawn) | 0.5
O=[N+]([O-])c1ccc(-c2nnc(-c3ccccc3)c(N3CCOCC3)n2)cc1 | 0.1

Next part:
structure | H5N1 CPE
Cc1[nH][nH]c(=O)c1C(c1ccc(-c2ccc(Cl)c(Cl)c2)o1)c1c(C)[nH][nH]c1=O | 4.8
O=C(OCc1cc2ccccc2[nH]c1=O)c1ccccn1 | 1.0
CC(=O)N1CCN(c2ccc(NCc3ccc(F)cc3)cc2)CC1 | i
CC(C(=O)NC1CCCc2ccccc21)N1CCN(Cc2ccc3c(c2)OCO3)CC1 (stereo not drawn) | i
CC1(NC(=O)N2CCCCC2)CCS(=O)(=O)C1 (stereo not drawn) | i
CC1Cc2ccccc2N1C(=O)CSCC(=O)O (stereo not drawn) | 0.5
COc1ccc(OC)c2c(C)cc(N3CCCN(C)CC3)nc12 | i
COc1ccc(-n2c(Cc3cccn3C)nnc2SCC(=O)N2CCOCC2)cc1 | i
O=C(O)CCCC(=O)NCCc1ccncc1 | 0.1
COc1ccc(-n2cnc3c(sc4nccc(N(C)C)c43)c2=O)cc1 | i
Cc1cc(C(=O)O)c(CCCN)s1 | 0.5
COc1ccc(Nc2ncc(C(=O)N3CCN(c4ccccc4OC)CC3)c3ccccc23)cc1 | 0.2
O=C(/C=C/c1ccccc1)N1CCN(c2ccc([N+](=O)[O-])c(N3CCOCC3)c2)CC1 | i
COc1ccc(N2CCN(C(=O)c3ccc(C)c(Cl)c3)CC2)cc1 | 0.2
CCCSc1nc(=O)n2cccc(C)c2n1 | 7.7
CC(C)CC[n+]1ccn(C2=C([O-])c3ccccc3C(=O)/C2=N\S(=O)(=O)c2ccccc2)c1 | i
Cc1cc(C)n2nc(SCc3nc4ccccc4[nH]3)nc2n1 | 1.6
COCc1cc(C(C)=O)ccc1OC | i
CC1Oc2ccccc2N(CC(=O)c2ccccc2)C1=O (stereo not drawn) | 0.1
CCOc1ccccc1-n1c(SCC(=O)NCc2ccco2)nnc1-c1ccncc1 | 4.8
COc1ccc(S(=O)(=O)N(C)CC(=O)N2CCOCC2)cc1Cl | 0.3
N#CC1=C(N)Oc2n[nH]c(-c3cccs3)c2C1C1CCCCC1 (stereo not drawn) | i
COc1ccc(Cn2c(C)c(C)c(C#N)c2NC(=O)Nc2cccc(C)c2)cc1 | 0.2
COc1ccc(NC(=O)CCOc2ccccc2)cc1 | i
CCOC(=O)Nc1sc(C)nc1-c1ccccc1 | i

Next part:
| molecule | H5N1 CPE |
| --- | --- |
| O=C(CN1C(=O)c2ccccc2C1=O)Nc1nc(-c2cccc([N+](=O)[O-])c2)cs1 | 0.2 |
| CC(=O)Nc1cc(NC(C)=O)c(CC(C)C)s1 | i |
| c1ccc(-n2ncc3c(NCC4CCCO4)ncnc32)cc1 (stereo not drawn) | i |
| Cc1ccc(-c2n[nH]c(=O)c3ccccc23)cc1S(=O)(=O)NCCN1CCOCC1 | 1.7 |
| COc1ccccc1NC(=O)Nc1ccc2c(c1)OCCO2 | i |
| CCN(Cc1ccccc1)S(=O)(=O)c1ccc(S(=O)(=O)N2CCN(CCC#N)CC2)cc1 | 0.1 |
| O=C(OC1CSc2nc3ccccc3n2C1)c1ccco1 (stereo not drawn) | 2.5 |
| O=C(COC(=O)C1=COCCO1)Nc1ccc2c(c1)OCO2 | 0.8 |
| Cc1ccc(S(=O)(=O)Nc2ccc(-c3nc4cc(NS(=O)(=O)c5ccc(C)cc5)ccc4o3)cc2)cc1 | i |
| CCOCCCn1c(-c2ccc(Cl)cc2)n[nH]c1=S | 0.8 |
| CCOC(=O)N1CCC(NC(=O)c2ccc3snnc3c2)CC1 | i |
| Cc1ccc(Cl)c2c1NC(=O)C2(O)CC(=O)c1ccc(F)cc1 (stereo not drawn) | 1.2 |
| CCCOc1ccccc1C1NC(=O)NC(C)=C1C(=O)OCCOC (stereo not drawn) | 0.5 |
| Cc1ccc(NC(=S)NNC(=O)c2nn(C)cc2Cl)cc1 | i |
| O=C(CN1C(=O)c2ccccc2S1(=O)=O)N1CCN(Cc2ccc3c(c2)OCO3)CC1 | i |
| CCn1c(SCC(=O)NC(C)(C)C)nc(O)cc1=O | i |
| CCCCC(CC)CNC(=O)CN(C)S(=O)(=O)c1cccc2nsnc12 (stereo not drawn) | i |
| C=CCOc1ccc(C2OC34CCCCC3C(C#N)(C#N)C2(C#N)C(=N)O4)cc1 (stereo not drawn) | 2.6 |
| COc1ccc(N2CCN(C(CNC(=O)c3cccc(Cl)c3)c3cccnc3)CC2)cc1 (stereo not drawn) | i |
| COc1cc(C(=O)NCC(C)C)cc(OC)c1OC | 0.2 |
| COc1ccc(OC)c(NC(=O)[C@H]2CC=CC[C@H]2C(=O)O)c1 | i |
| N#CC(C#N)C(c1ccsc1)c1c(-c2ccccc2)[nH][nH]c1=O (stereo not drawn) | i |
| c1ccc2c(c1)CCCN2Cc1nnnn1C1CCCC1 | 0.5 |
| COC(=O)c1cc2c(s1)-c1ccccc1CC2 | 0.9 |
| CCc1cc(-c2n[nH]c(=S)n2C(C)c2ccccc2)cs1 (stereo not drawn) | 0.9 |

A second format for some results above:
c1ccc2c(c1)CCCN2Cc1nnnn1C1CCCC1
- H5N1 CPE = 0.5
COC(=O)c1cc2c(s1)-c1ccccc1CC2
- H5N1 CPE = 0.9
CCc1cc(-c2n[nH]c(=S)n2C(C)c2ccccc2)cs1 (stereo not drawn)
- H5N1 CPE = 0.9

New compounds follow.
| molecule | H5N1 CPE |
| --- | --- |
| O=C(Nc1ccc(Cl)cc1)NC1CCCCC1 | 0.1 |
| CCOC(=O)c1c(C)n(C)c2ccc(OCCN(C)C)cc12 | 2.0 |
| Cc1cc(C(C)(C)C)oc1C(=O)N(CC(=O)NC1CCCC1)Cc1ccc(Cl)cc1 | i |
| O=C(Nc1ccccc1)C1CC(=O)N(C2CCCCC2)C1 (stereo not drawn) | 0.2 |
| O=C(NCc1ccc2c(c1)OCO2)c1nn(-c2ccccc2)c(=O)c2ccccc12 | i |
| O=C(CSc1nc(-c2ccc(F)cc2)cs1)N1CCOCC1 | i |
| O=C(Nc1ccc(N2CCN(C(=O)c3ccccc3)CC2)cc1)c1cc2ccccc2o1 | 0.2 |

For reference, some entries already given.
| molecule | H5N1 CPE |
| --- | --- |
| CCc1cc(-c2n[nH]c(=S)n2C(C)c2ccccc2)cs1 (stereo not drawn) | 0.9 |
| O=C(Nc1ccc(Cl)cc1)NC1CCCCC1 | 0.1 |
| CCOC(=O)c1c(C)n(C)c2ccc(OCCN(C)C)cc12 | 2.0 |
| Cc1cc(C(C)(C)C)oc1C(=O)N(CC(=O)NC1CCCC1)Cc1ccc(Cl)cc1 | i |
| O=C(Nc1ccccc1)C1CC(=O)N(C2CCCCC2)C1 (stereo not drawn) | 0.2 |
| O=C(NCc1ccc2c(c1)OCO2)c1nn(-c2ccccc2)c(=O)c2ccccc12 | i |
